Cruzain inh noDet = qHTS Assay for Promiscuous and Specific Inhibitors of Cruzain (without detergent); Cruzipain (Trypanosoma cruzi), P25779; purified cruzain, Z-FR-AMC fluorescence, no detergent; Potency, µM, without a hit: max response, negative = inhibition, usual class: inhibitors; actives 2.3% (n = 200,000); AID 1476, 2009; active = well fitted curve in the direction sought with a large enough effect; inconclusive = small, poorly fitted or top-dose-only effect, or another doubt; inactive = no such curve, though single readings can be large; an effect the other way counts as inactive or inconclusive;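 note: plate controls were enzyme without inhibitor for no effect and buffer without enzyme for full effect; nearly all actives have a fitted effect of over 40% in size; top concentration of the series not given in the record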
Target sequence (P25779 123-467 limits assumed): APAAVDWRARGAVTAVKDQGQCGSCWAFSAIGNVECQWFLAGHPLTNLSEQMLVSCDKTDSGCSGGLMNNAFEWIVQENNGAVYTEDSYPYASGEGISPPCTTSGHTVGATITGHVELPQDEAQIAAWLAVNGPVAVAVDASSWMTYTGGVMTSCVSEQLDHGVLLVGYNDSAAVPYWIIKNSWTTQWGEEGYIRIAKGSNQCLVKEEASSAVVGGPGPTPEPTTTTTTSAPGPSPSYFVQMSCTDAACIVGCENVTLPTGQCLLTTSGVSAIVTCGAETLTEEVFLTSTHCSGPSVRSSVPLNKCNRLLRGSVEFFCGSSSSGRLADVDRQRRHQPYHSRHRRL
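Purified cruzain at 1.5 nM, pre-incubated 15 min with compound at room temperature in 100 mM sodium acetate pH 5.5, 5 mM DTT, 0.00005% Triton X-100. Reaction started with 2 uM Z-FR-AMC; AMC fluorescence increase over 60 s gives rate.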
LASV entry inh = qHTS for Inhibitors of binding or entry into cells for Lassa Virus. Lassa virus pseudotype entry inhibition, cell reporter; control for the full effect not named in the record. Potency, µM (doses to about 37.9 µM), without a hit: at the top dose activity change, negative = inhibition, usual class: inhibitors. actives 1.2% (n = 300,000). AID 540256, 2011; active means well fitted inhibition curve with a large enough effect; inconclusive means small, poorly fitted or top-dose-only effect, or effect the other way; inactive means flat fitted curve, though single readings scatter; tested in HEK293 cells; note: % is set by controls: 0 for no effect and ±100 for the full control effect; nearly all actives have a fitted effect of over 50% in size; luciferase read-out
RE007 growth inh = qHTS Assay for Inhibitors of the HIV-1 protein Vpr | Potency, µM (series often up to 92.2 µM), inactives show top-dose activity change, negative = less growth | S. pombe RE007 Vpr strain, BacTiter-Glo ATP luminescence, 24 h; control for the full effect not named in the record | actives 0.21% (n = 360,000); active = well fitted falling curve with a large enough effect; inconclusive = small, poorly fitted or top-dose-only effect; inactive = no such curve, though single readings can be large or run the other way;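 note: % is set by controls: 0 for no effect and ±100 for the full control effect; nearly all actives have a fitted effect of over 50% in size; the assay follows cell death caused by Vpr and the record does not say whether a fall means rescue or toxicity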
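Fission yeast RE007 carrying one integrated HIV-1 vpr copy, seeded at OD 0.01 in PMG+AL medium with 23 nL pinned compound. Grown 24 h at 30 degrees; viability read by BacTiter-Glo luminescence after 5 min.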
Cruzain Triton = qHTS Assay for Promiscuous and Specific Inhibitors of Cruzain (with detergent); purified cruzain, Z-FR-AMC fluorescence, 0.01% Triton; AID 1478, 2009; actives 0.43% (n = 200,000); Potency, µM, inactives show max response, negative = inhibition, most hits filed as inhibitors; active = well fitted curve in the direction sought with a large enough effect; inconclusive = small, poorly fitted or top-dose-only effect, or another doubt; inactive = no such curve, though single readings can be large; an effect the other way counts as inactive or inconclusive;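 note: plate controls were neutral wells for no effect and buffer without enzyme for full effect; nearly all actives have a fitted effect of over 40% in size; top concentration of the series not given in the record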
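Detergent-containing run (0.01% Triton X-100) in acetate buffer pH 5.5 with 5 mM DTT: enzyme at 1.5 nM final, 15 min compound preincubation at room temperature, then 2 uM Z-FR-AMC substrate. Activity taken as 60 s fluorescence increase at 360/450 nm.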
Marburg entry inh = qHTS for inhibitors of binding or entry into cells for Marburg Virus | Marburg virus pseudotyped entry inhibition, cell reporter; control for the full effect not named in the record; about a third of the inactives were read at about 46 µM | Potency, µM (top dose mostly 37.8 µM), for the others: top-dose activity change, negative = inhibition, most hits filed as inhibitors | AID 540276, 2011 | actives 1.8% (n = 300,000); active = well fitted inhibition curve with a large enough effect; inconclusive = small, poorly fitted or top-dose-only effect, or effect the other way; inactive = flat fitted curve, though single readings scatter; tested in HEK293 cells; about a fifth of its hits are not listed in these tables; note: % is set by controls: 0 for no effect and ±100 for the full control effect; luciferase read-out
StopGo reporter = High Throughput Screening for Foot and Mouth Disease Virus Antivirals. AID 1159524, 2015. Potency, µM (highest dose often 57.9 µM), without a hit: top-dose signal change, negative = less light. actives 1.2% (n = 410,000). human cells with a luciferase reporter of 2A StopGo recoding; control for the full effect not named in the record; active = well fitted falling curve with a large enough effect; inconclusive = small, poorly fitted or top-dose-only effect; inactive = no such curve, though single readings can be large or run the other way; tested in HEK293T cells; note: % is set by controls: 0 for no effect and ±100 for the full control effect; nearly all actives have a fitted effect of over 45% in size; luciferase light after 4 h
SARS PLpro yeast = qHTS of Yeast-based Assay for SARS-CoV PLP; actives 0.19% (n = 330,000); Potency, µM (highest dose often 32.9 µM), inactives show at the highest dose activity, positive = growth rescue; S. cerevisiae expressing SARS-CoV PLpro, growth rescue; control for the full effect not named in the record; note: 0% is about no effect; nearly all actives have a fitted effect of over 55% in size; growth read by luminescence after 48 h
NS1 function inh = qHTS Assay for Inhibitors of Influenza NS1 Protein Function. S. cerevisiae slowed by influenza A NS1, growth recovery by OD600. Potency, µM (titrated, usually from 46.1 µM), without a hit: top-dose activity, positive = more growth. actives 0.4% (n = 270,000). AID 2326, 2010; note: actives are rising curves; nearly all actives have a fitted effect of over 50% in size
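S. cerevisiae expressing influenza A NS1, grown in glucose, washed, then diluted 1:100 into pH 6.0 -URA galactose medium with 23 nl compound. Growth recovery read as OD600; NS1-free strain serves as control.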
* = called active by the depositor; ? = inconclusive; / = no result given; [ ] = remark or other dose. Unless noted, calls come from the whole dose curve; as a rule, active means well fitted rising curve with a large enough effect; inconclusive means small, poorly fitted or top-dose-only effect; inactive means no such curve, though single readings can be large or run the other way. Potency is the fitted concentration of half-maximal effect.

Molecule	Cruzain inh noDet	LASV entry inh	RE007 growth inh	Cruzain Triton	Marburg entry inh	StopGo reporter	SARS PLpro yeast	NS1 function inh
CC(=O)N1c2ccc(S(=O)(=O)N3CCCC(C(=O)N4CCCC(C)C4)C3)cc2CC1C (stereo not given)	/	3%[46.1 µM]	3%	/	-18%[46.1 µM]	-24%	3%	-18%
O=C(c1cccs1)[C@@H]1[C@@H]2C(=O)N(Cc3ccc4c(c3)OCO4)C(=O)[C@@H]2C2c3ccccc3C=CN21 (stereo not given in full)	25µM*	/	/	-2.3%	/	/	-6%	?
O=c1[nH][nH]c(C(F)(F)F)c1C=NCc1ccccc1Cl	-6%	-26%	-1%	-1.1%	-4%	-10%	13%	3%
CCOC(=O)C1CCN(C(=O)c2cc3cc(Cl)ccc3[nH]2)CC1	/	-6%	-9%	/	0%[46.1 µM]	13%	0%	2%
O=C(N/N=C/c1cccc(C(F)(F)F)c1)c1cc2c(s1)-c1ccccc1CC2	?	?	-11%	-17%	5%[46.1 µM]	-6%	2%	-6%
COC(=O)[C@@H](NC(=O)NCc1ccc(F)cc1)C(C)C	4%	1%	3%	4.1%	0%	13%	0%	5%
CCC(C)C1(C2CCCC2)NC(=O)NC1=O (stereo not given)	/	2%[46.1 µM]	-11%	/	-14%[46.1 µM]	-7%	/	/
Cc1cccc(-c2nc(CS(=O)CC(=O)N3CCN(C)CC3)c(C)o2)c1 (stereo not given)	-15%	/	8%	1.7%	/	-23%	3%	?
CCc1cc(=O)oc2c3c(cc(OCC(=O)NCCN4CCOCC4)c12)OC(C)(C)CC3	/	/	-9%	/	/	-13%	7%	-14%
CCOC(=O)C1=C(C)NC(=O)NC1c1ccc(-c2ccc(F)cc2)o1 (stereo not given)	/	/	-10%	/	-3%[46.1 µM]	-20%	2%	/
CCOc1cc(/C=N/NC(=O)C(=O)NCC2CCCO2)ccc1OCC(=O)N1CCOCC1 (stereo not given)	/	-1%	-2%	/	21%	-8%	0%	-4%
CCn1c(C(=O)N2CCC(C(=O)N3CCN(c4cc(C)ccc4C)CC3)CC2)cc2sccc21	?	/	/	-10.0%	?	?	/	/
O=C(CSc1nc2c([nH]c3ccccc32)c(=O)n1-c1ccccc1)Nc1ccc2c(c1)OCO2	?	-29%[46.1 µM]	/	-2.2%	/	7%	/	/
CN(C)CCCNc1oc(/C=C/c2ccccc2)nc1C#N	/	9%	-6%	/	?	-1%	1%	-2%
CC(=O)Nc1ccc(NC(=O)[C@@H](NC(=O)c2ccccc2F)C(C)C)cc1	/	1%[46.1 µM]	47%	/	6%[46.1 µM]	7%	0%	-1%
O=C(NC(=S)Nc1ccccc1N1CCCC1)c1cccs1	/	/	-15%	/	/	38%[activator]	1%	9%
CCOc1ccc(-c2nc3c(C#N)c[nH]n3c2NC2CCCCC2)cc1	22%	-27%[46.1 µM]	/	-1.7%	-2%[46.1 µM]	5%	/	/
CC(OC(=O)C1CC(O)CN1S(=O)(=O)c1ccccc1[N+](=O)[O-])C(=O)N1CCCCC1 (stereo not given)	-1%	12%	2%	-2.6%	8%	11%	11%	-2%
CC1CCC(NC(=O)c2ccc(CS(=O)(=O)c3ccc(Cl)cc3)o2)CC1 (stereo not given)	13%	?	/	-5.5%	/	32µM*	/	/
O=C(CSc1nc2ccccc2c(=O)n1-c1ccc(F)cc1F)Nc1ccc(N2CCOCC2)cc1	12%	-10%	20%	-3.1%	?	-16%	9%	-8%
Cc1cc(C)cc(NC(=O)N2CCC3(CC2)Oc2ccccc2C(=O)N3Cc2ccccc2F)c1	2%	/	/	-2.5%	-22%[46.1 µM]	-22%	/	/
CCOc1cc(CN2CCCC(CO)(Cc3ccc(F)cc3F)C2)ccc1OC (stereo not given)	/	/	-5%	/	/	-17%	0%	-3%
COC(=O)c1cccc(N2C(=O)c3cccnc3C2=O)c1	-2%	12%	-10%	2.7%	14%	-15%	6%	-17%
COc1cccc(CN(C)C(=O)/C=C/c2ccc(S(=O)(=O)N3CCCCCC3)cc2)c1	/	?	3%	/	?	?	2%	?
Cc1onc(-c2ccccc2Cl)c1C(=O)N1CCc2ccccc2C1	-4%	1%	6%	-2.3%	-22%	-19%	/	4%
CCOC(=O)c1c(S(=O)(=O)N(C)Cc2ccccc2)c(C)n(C)c1C	/	/	-6%	/	/	17%	-2%	?
Cc1ccc(S(=O)(=O)n2nc(C)c(Br)c2C)c(C)c1C	-5%	?	-4%	-0.3%	?	-21%	-1%	-14%
Cc1cccc(C)c1NC(=O)COC(=O)c1cc[n+]([O-])cc1	/	?	0%	/	-1%	6%	-6%	/
Cc1ccc(C2OC(=O)c3ccccc32)cc1 (stereo not given)	-11%	-5%	29%	-3.5%	13%	-6%	-8%	1%
Cn1nnnc1SCC(=O)Nc1cc(S(=O)(=O)N2CCCC2)ccc1Cl	/	-5%	4%	/	27%[46.1 µM]	-7%	-2%	/
COc1cc(OC)c(NC(=O)NC(C)c2c(-n3cccc3)sc(C)c2C)cc1Cl (stereo not given)	?	/	/	-4.1%	-19%[46.1 µM]	-15%	/	/
C=C(C)c1cccc(C(C)(C)NC(=O)Nc2ccc(Cl)cn2)c1	-4%	?	-6%	-5.1%	?	?	-71%	-26%
Cc1cccnc1NC(=O)CCn1c(=O)oc2ccccc21	/	/	-11%	/	/	4%	-9%	-6%
O=C(CC1NCCNC1=O)Nc1ccc(Oc2ccccc2)cc1 (stereo not given)	-15%	-13%[14.3 µM]	3%	-0.8%	-2%	16%	-7%	-3%
COCCN(C(=O)COC(=O)/C=C/c1ccccc1Cl)c1c(N)n(Cc2ccccc2)c(=O)[nH]c1=O	/	-20%	7%	/	-3%	-9%	-4%	/
COc1ccc(OC)c(NC(=O)CSCc2cnn(-c3ccccc3)c2-n2cccc2)c1	2%	?	-1%	0.2%	?	-39%	1%	-39%
COc1cccc(S(=O)(=O)NCc2ccc(C(=O)NCC3CCCO3)cc2)c1 (stereo not given)	2%	26%[14.3 µM]	2%	4.4%	-7%	8%	15%	-4%
N#Cc1c(/N=C/c2ccc(-c3ccccc3C(=O)O)o2)sc2c1CCCC2	/	10%	?	/	?	-14%	1%	-2%
CN(CC(=O)Nc1c(Cl)cccc1Cl)C(=O)c1ccccc1SCC(=O)N1CCCC1	/	-18%	-2%	/	3%[46.1 µM]	-7%	10%	-6%
COc1ccc(NC(=O)Nc2nnc(C(C)(C)C)s2)cc1	/	/	8%	/	/	39%[activator]	0%	2%
CC(C)(Cl)[N+](=O)[O-]	21%	/	-2%	-0.8%	/	-11%	-15%	/
COc1ccc(-c2cc(-c3ccccc3)c(C#N)c(SCC(O)CS(=O)(=O)Cc3ccccc3)n2)cc1 (stereo not given)	?	?	/	2.3%	/	-23%	/	/
CCN1CCn2c1nc(N1CCOCC1)nc2=O	-5%	-1%	6%	5.2%	3%	/	1%	1%
COc1cc(C(=O)NCc2nnc(SCC(=O)N3CCOCC3)o2)cc(OC)c1OC	/	3%	2%	/	12%	-8%	3%	/
O=C1C2CC=C(Cl)CC2C(=O)N1CC1Cc2ccccc2CO1 (stereo not given)	0%	/	1%	-8.4%	/	-18%	-1%	-7%
CCc1ccc(OCC(=O)NNC(=O)c2cc3ccccc3o2)cc1	/	8%	5%	/	-8%[46.1 µM]	-7%	0%	0%
COc1ccc(Cl)cc1NC(=O)[C@@H]1CCCN1C(=O)c1cccs1	-4%	21%	14%	-1.8%	24%	6%	30%	-9%
CCCCCCCCOC(=O)/C=C/c1c(C)[nH]c(=O)[nH]c1=O	-15%	-24%	-5%	-0.8%	?	-27%	7%	-2%
Cc1ccc(N2CC(c3nnc(Cc4ccccc4Cl)o3)CC2=O)cc1 (stereo not given)	8%	5%[46.1 µM]	/	-3.7%	-1%[46.1 µM]	11%	/	/
CN(C)c1ccc(NS(=O)(=O)c2cc(Cl)ccc2Cl)cc1	-11%	?	-18%	-8.9%	?	59%[activator]	14%	10%
Cc1cccn2c(CNCCCn3ncc4ccccc43)c(C(=O)N3CCCCC3)nc12	/	/	0%	/	/	-16%	1%	-1%
CCOc1ccccc1NC(=O)C1CCCN(c2ncnc3onc(-c4ccc(F)cc4)c23)C1 (stereo not given)	-5%	-21%[46.1 µM]	/	-1.6%	/	-21%	/	/
O=C1c2ccccc2CN1c1ccccc1	/	2%[46.1 µM]	0%	/	?	8%	-7%	-7%
O=C(c1cccs1)N(Cc1cccc(Cl)c1)C1CCS(=O)(=O)C1 (stereo not given)	-3%	?	1%	6.1%	-4%	-5%	9%	-4%
CC(C)OC(=O)CSc1nc(Cc2ccccc2)nc2ccccc12	/	/	-5%	/	/	-22%	0%	-5%
CCN(CCCNc1ncnc2nc[nH]c12)c1cccc(C)c1	5%	/	1%	4.8%	/	?	7%	-9%
CCc1nn2c(=O)cc(N3CCN(c4cc(C)nc5ccccc45)CC3)nc2s1	-4%	/	/	1.1%	/	/	3%	0%
CCOC(=O)Nc1nc2ccc(Cn3cccc3)cc2[nH]1	/	-29%[46.1 µM]	-4%	/	-17%	31%[activator]	/	/
Cc1nnc(N/N=C/c2ccccc2O)n1N	/	?	0%	/	?	26%	-4%	/
O=C(O)c1cc(-c2cccs2)nn1-c1cccc(Cl)c1	/	25%	2%	/	8%	-17%	2%	/
CC(=O)Nc1ccc(NC(=O)Cn2cnc(S(=O)(=O)N3CCOCC3)c2)cc1	/	/	6%	/	/	11%	-1%	1%
O=C1CCCCC1	2%	/	-7%	0.9%	/	-2%	1%	/
CC(=O)c1cnn(-c2nc3c(C)cccc3s2)c1C	-8%	?	3%	-2.1%	0%	40%[activator]	-4%	-15%
